Source: PubChem (National Center for Advancing Translational Sciences (NCATS))
nsP2pro inh: inhibitors of chikungunya virus nsP2 protease. Potency, µM (titrated, usually from 24.9 µM), for inactives: top-dose activity change, negative = inhibition, actives largely listed as inhibitors. FRET peptide cleavage, nsP2pro, fluorescence 1 h. 31,000 tested, 1.1% active. Q8JUX6; active means well fitted inhibition curve with a large enough effect; inconclusive means small, poorly fitted or top-dose-only effect; inactive means no such curve, though single readings can be large or run the other way; further: nearly all actives have a fitted effect of over 60% in size; a reference inhibitor and vehicle were the controls
Target sequence (Q8JUX6 whole entry, looked up): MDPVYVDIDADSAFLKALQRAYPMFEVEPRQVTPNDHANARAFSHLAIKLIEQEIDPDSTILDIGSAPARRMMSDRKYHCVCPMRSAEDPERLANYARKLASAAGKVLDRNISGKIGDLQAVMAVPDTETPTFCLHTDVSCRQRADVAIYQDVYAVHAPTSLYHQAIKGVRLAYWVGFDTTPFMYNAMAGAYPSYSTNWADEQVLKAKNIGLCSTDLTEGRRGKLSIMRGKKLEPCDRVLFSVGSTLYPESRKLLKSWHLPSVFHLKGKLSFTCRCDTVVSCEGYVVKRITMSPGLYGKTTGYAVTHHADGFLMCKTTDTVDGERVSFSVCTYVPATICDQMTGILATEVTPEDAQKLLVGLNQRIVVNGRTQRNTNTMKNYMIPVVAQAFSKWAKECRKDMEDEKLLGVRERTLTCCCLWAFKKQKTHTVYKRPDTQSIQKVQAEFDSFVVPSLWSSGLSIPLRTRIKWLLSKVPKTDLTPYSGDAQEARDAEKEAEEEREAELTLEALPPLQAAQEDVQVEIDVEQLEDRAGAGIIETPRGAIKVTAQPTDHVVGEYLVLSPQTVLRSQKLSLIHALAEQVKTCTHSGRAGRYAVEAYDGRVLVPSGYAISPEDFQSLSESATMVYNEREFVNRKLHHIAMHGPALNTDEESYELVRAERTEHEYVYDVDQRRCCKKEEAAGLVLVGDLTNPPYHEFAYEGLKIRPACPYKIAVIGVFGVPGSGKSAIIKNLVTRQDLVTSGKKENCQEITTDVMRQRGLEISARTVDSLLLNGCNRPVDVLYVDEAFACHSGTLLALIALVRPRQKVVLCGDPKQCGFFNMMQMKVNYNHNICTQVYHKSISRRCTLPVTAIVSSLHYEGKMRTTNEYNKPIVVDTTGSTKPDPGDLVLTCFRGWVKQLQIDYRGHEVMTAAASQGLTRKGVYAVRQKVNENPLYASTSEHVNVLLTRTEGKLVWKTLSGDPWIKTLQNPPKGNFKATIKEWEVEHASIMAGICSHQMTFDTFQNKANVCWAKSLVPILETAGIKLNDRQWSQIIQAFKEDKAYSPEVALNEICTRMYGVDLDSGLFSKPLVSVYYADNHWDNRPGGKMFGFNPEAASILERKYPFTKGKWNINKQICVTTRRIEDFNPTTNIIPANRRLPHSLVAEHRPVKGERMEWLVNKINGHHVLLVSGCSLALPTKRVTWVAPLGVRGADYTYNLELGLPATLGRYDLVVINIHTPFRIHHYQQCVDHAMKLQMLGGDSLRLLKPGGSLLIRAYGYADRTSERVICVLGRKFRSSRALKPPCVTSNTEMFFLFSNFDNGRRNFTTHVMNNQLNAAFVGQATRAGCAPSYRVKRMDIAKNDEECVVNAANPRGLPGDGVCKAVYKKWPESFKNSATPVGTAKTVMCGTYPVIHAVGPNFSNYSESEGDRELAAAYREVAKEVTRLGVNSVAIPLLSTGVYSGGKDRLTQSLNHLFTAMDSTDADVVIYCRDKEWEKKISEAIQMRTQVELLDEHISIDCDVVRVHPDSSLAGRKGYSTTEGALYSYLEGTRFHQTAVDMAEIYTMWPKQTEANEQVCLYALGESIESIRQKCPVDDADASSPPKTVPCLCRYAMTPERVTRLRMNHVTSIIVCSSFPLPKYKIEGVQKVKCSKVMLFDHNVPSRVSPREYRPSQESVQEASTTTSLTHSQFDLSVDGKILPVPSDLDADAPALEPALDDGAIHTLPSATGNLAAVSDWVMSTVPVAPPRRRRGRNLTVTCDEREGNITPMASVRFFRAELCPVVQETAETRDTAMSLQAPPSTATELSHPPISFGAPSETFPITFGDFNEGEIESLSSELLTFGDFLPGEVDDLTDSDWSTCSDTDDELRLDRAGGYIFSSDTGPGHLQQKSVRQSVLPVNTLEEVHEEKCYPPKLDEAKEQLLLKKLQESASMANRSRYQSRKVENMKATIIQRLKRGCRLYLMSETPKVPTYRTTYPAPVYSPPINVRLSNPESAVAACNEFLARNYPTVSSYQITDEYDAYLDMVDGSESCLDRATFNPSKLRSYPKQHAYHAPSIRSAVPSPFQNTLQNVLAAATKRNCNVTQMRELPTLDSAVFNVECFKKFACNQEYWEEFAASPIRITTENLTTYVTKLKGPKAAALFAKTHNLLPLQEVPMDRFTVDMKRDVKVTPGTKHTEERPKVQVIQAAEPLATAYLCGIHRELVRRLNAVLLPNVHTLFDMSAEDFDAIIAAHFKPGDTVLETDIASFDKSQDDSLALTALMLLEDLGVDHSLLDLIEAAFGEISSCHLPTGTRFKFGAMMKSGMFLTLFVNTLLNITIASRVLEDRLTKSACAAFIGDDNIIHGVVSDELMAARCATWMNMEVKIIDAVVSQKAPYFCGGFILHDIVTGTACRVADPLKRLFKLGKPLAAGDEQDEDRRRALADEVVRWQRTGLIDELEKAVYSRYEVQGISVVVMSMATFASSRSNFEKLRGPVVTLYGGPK
An asterisk follows results filed as active; i = inactive; ? = inconclusive; & = joins results of further samples; [ ] = remark or other dose. On the % scale 0 is the no-effect control and ±100 the full control effect; potency means the concentration at half of the fitted maximal effect. An excerpt, so the mix of outcomes need not match the whole.

SMILES | nsP2pro inh
Cc1cccc(N2CCN(S(=O)(=O)c3cc(Br)cc4c3N(C(=O)C3CC3)CC4)CC2C)c1 (centres undefined) | -21%
O=C(Nc1ccc(Cl)cc1)Nc1nnc(-c2ccncc2)s1 | 3%
CNCC(=O)Nc1ccc(Cl)cc1C(=O)c1ccc[nH]1 | 4%
CN1CCN(C(=O)[C@@H]2CCC[C@@H](NCc3cnn(C)c3)CN(C)C(=O)C2)CC1 | -4%[39.2 µM]
Cc1ccccc1CN1CCc2nc(N3CCN(c4ncccn4)CC3)ncc2C1 | 52%[activator]
O=C(c1ccc2ccccc2n1)N1CCc2nnc(CCc3ccccc3)n2CC1 | 4%
O=S(=O)(c1ccccc1)c1nc(-c2ccccc2F)oc1N1CCOCC1 | -22%
CC(C)CCN1CCC(O)(c2csc(CN(C)Cc3cccnc3)n2)CC1 | i
C=C1C(OC(=O)/C(C)=C\C)[C@@]23CCC4[C@@](C)(CCC[C@@]4(C)C(=O)O)C2CC[C@H]1C3OC(C)=O (some centres undefined) | -11%[10 µM]
CCOC(=O)c1c(C)oc2nc(C)nc(NCCc3ccc(OCC)c(OCC)c3)c12 | -20%
CCCn1cc2c(nc(NC(=O)Nc3ccc(OC)cc3)n3nc(-c4ccco4)nc23)n1 | 12%
CC(=O)c1ccc(N2CCN(S(=O)(=O)c3ccc4c(c3)CCC(=O)N4)CC2)cc1 | 2%
C[C@@H]1C(=O)O[C@H]2[C@H](O)[C@@]34[C@@H]5OC(=O)[C@@]3(O[C@@H]3OC(=O)[C@@H](O)[C@@]34[C@H](C(C)(C)C)[C@H]5O)[C@@]12O | 12%[10 µM]
CNC(=O)[C@@H](CC(C)C)N1CCC[C@H]1C(=O)N[C@@H](CO)CC(C)C | -10%[39.2 µM]
CCOC(=O)c1ccc(NC(=O)CCC(=O)N2Cc3ccccc3Oc3ncccc32)cc1 | -15%
CCOc1ccccc1NC(=O)N1c2ccccc2Sc2ccccc21 | -13%
CCOC(=O)c1ccc(NC(=O)CSc2nc3c(cc2C#N)N2CCC3CC2)cc1 | -13%
COC(=O)CSc1nc2sc3c(c2c(=O)n1-c1ccccc1)C(C)CCC3 (centres undefined) | -21%
CCC(C(=O)Nc1ccc(C(C)=O)cc1)n1c(C)c2cnn(-c3ccccc3)c(=O)c2c1C (centres undefined) | -8%
Clc1ccccc1-c1nnc(-c2ccccc2CNc2ccccc2)o1 | -13%
COc1cccc(NC(=O)CN2C(=O)CSc3ccc(S(=O)(=O)N4CCCC4)cc32)c1 | -19%
COc1ccc(CCNC(=O)C2CCC(CNS(=O)(=O)c3ccc(C)cc3)CC2)cc1OC (centres undefined) | -29%
Cc1cc(CNC(=O)c2cc(C(C)C)n3ncnc3n2)c2[nH]c(C)c(C)c2c1 | i
CNC(=O)[C@@H]1CN(C(=O)CCc2cccc(OC)c2)C[C@H]1c1nc(C)no1 | 5%
Cc1cc(C)cc(Oc2coc3c(CN4CCN(C)CC4)c(O)ccc3c2=O)c1 | -18%
C=C(COC(=O)CC(C)C)C1Cc2cc(C(C)=O)ccc2O1 (centres undefined) | -20%
CC(=C\C(C)O)/C=C(\C)C(=O)CC1CC(CC(N)=O)CC(=O)O1 (centres undefined) | -17%
Nc1cc(S(=O)(=O)N2CCN(S(=O)(=O)c3ccc4c(c3)OCCO4)CC2)ccn1 | -3%
COc1cc(O)c(C(=O)Nc2nc(C(=O)NCCN(C(C)C)C(C)C)cs2)cc1OC | -23%
CC(=O)c1cc2c(cc1N/C(=N/S(=O)(=O)c1ccc(C)cc1)c1ccccc1)OCO2 | -14%
COc1cc([N+](=O)[O-])ccc1NC(=O)N1CCC2(CC1)Nc1cc(F)ccc1-n1cccc12 | -11%
CN(Cc1cncn1C)c1ncnc2ccc(-c3ccc4c(c3)OCO4)cc12 | i
COCCNc1cc(-c2ccnc(SC)n2)c2cc[nH]c2n1 | 0%
CCCCN(CCCC)C1=C(C(=O)c2ccccc2)N(C)S(=O)(=O)c2ccccc21 | -22%
Cc1cccc(OCC(O)Cn2c(=N)n(CCN3CCCCC3)c3ccccc32)c1 (centres undefined) | 0%
COc1cc(OC)cc(C2=Nn3c(nnc3-c3ccccc3O)SC2)c1 | -4%
Cc1nnc2n1-c1sc(CCc3ccc(CC(C)C)cc3)cc1C(c1ccccc1Cl)=NC2C (centres undefined) | 1%
C#CCO[C@H]1CN2CCC1CC2 | 15%
COc1ccc(OC)c(NC(=O)C2CCCN(S(=O)(=O)c3ccc4c(c3)CCCC(=O)N4)C2)c1 (centres undefined) | -6%
CN1C(=O)c2ccccc2-n2c(nc3ccccc3c2=O)/C1=C/c1ccccc1 | -11%

The last 2 entries of the part before lead into the next:
SMILES | nsP2pro inh
COc1ccc(OC)c(NC(=O)C2CCCN(S(=O)(=O)c3ccc4c(c3)CCCC(=O)N4)C2)c1 (centres undefined) | -6%
CN1C(=O)c2ccccc2-n2c(nc3ccccc3c2=O)/C1=C/c1ccccc1 | -11%
O=C1CC2CCN(C(=O)C3CCCCC3)CC2CCN1 (centres undefined) | -2%[39.2 µM]
CCCCc1nc(SCC(=O)Nc2ccc(S(N)(=O)=O)cc2)n[nH]1 | -22%
CN1CCN(C(c2ccc(Cl)cc2Cl)c2sc3nc(-c4ccco4)nn3c2O)CC1 (centres undefined) | 2%
CN1C[C@H]2c3ccccc3Oc3ccc(Cl)cc3[C@@H]2C1 | -7%
COc1ccc(CNC(=O)N2CCCCC2c2nc(-c3ccncc3)n[nH]2)cc1 (centres undefined) | -3%
CCc1nc(NC(CCn2cncn2)c2ccccc2)c2cnn(C)c2n1 (centres undefined) | 3%
CC1(C)CC[C@]2(C(=O)O)CC[C@]3(C)C(=CCC4[C@@]5(C)CC[C@H](O[C@H]6O[C@H](C(=O)O)[C@@H](O)[C@H](O[C@@H]7O[C@H](CO)[C@H](O)[C@H](O)[C@H]7O)[C@H]6O)C(C)(C)C5CC[C@]43C)[C@@H]2C1 (some centres undefined) | 7%[5.1 µM]
COc1ccc(OC)c(S(=O)(=O)N2Cc3ccccc3CC2C(=O)Nc2ccc(Cl)cc2)c1 (centres undefined) | -15%
CN1CCN(c2cccc(Nc3nn4c(=O)c5ccc(Br)cc5nc4s3)c2)CC1 | i
COc1cccc(CNC(=O)Cc2c(C)c3cc4c(C)coc4cc3oc2=O)c1 | -20%
C=CC1(C)CC2CCC3C(C)(C(=O)O)CCCC3(C)C2=CC1=O (centres undefined) | -21%
COc1ccc(-c2onc(C)c2C)cc1S(=O)(=O)NCC(C)c1ccccc1 (centres undefined) | -7%
O=c1c2cc3c(cc2n(Cc2ccccc2)c(=O)n1Cc1nc(-c2ccccc2)no1)OCO3 | -14%
CC1=CC(=O)[C@]2(O[C@@H]3O[C@@H](C)[C@H](O)[C@@H](O)[C@H]3O)C=CO[C@@H](O[C@@H]3O[C@H](CO)[C@@H](O)[C@H](O)[C@H]3O)[C@H]12 | -19%[10 µM]
COc1cccc(-c2nc(SCC(=O)NCc3ccccc3)c3c(=O)n(C)c(=O)n(C)c3n2)c1 | -6%
COc1cc2ncnc(N(C)Cc3csc(C)n3)c2cc1-c1ccc2c(c1)OCO2 | 4%
O=C(CCc1ccccc1)c1c(O)c([C@@H]2O[C@H](CO)[C@@H](O)[C@H](O)[C@H]2O)c(O)c([C@@H]2O[C@H](CO)[C@@H](O)[C@H](O)[C@H]2O)c1O | 0%[10 µM]
c1ccc(-c2nc[nH]c2-c2ccccc2)cc1 | 25%
COc1ccc(C)cc1-n1c(SCC(=O)NCc2ccco2)nc2c([nH]c3ccccc32)c1=O | ?
CC[C@@]1(O)C(=O)OCc2c1cc1n(c2=O)Cc2cc3c(OC)cccc3nc2-1 | 12%

Reprinted at random: four compounds from above.
SMILES | nsP2pro inh
CCc1nc(NC(CCn2cncn2)c2ccccc2)c2cnn(C)c2n1 (centres undefined) | 3%
CN1CCN(c2cccc(Nc3nn4c(=O)c5ccc(Br)cc5nc4s3)c2)CC1 | i
CC1=CC(=O)[C@]2(O[C@@H]3O[C@@H](C)[C@H](O)[C@@H](O)[C@H]3O)C=CO[C@@H](O[C@@H]3O[C@H](CO)[C@@H](O)[C@H](O)[C@H]3O)[C@H]12 | -19%[10 µM]
c1ccc(-c2nc[nH]c2-c2ccccc2)cc1 | 25%

The listing continues:
SMILES | nsP2pro inh
O=C(NCC(F)(F)F)c1cn2cc(-c3ccc(C(F)(F)F)cc3)sc2n1 | i
COc1cc2c(cc1-c1ccc(S(C)(=O)=O)cc1)OCC(C)(C)CC2CO (centres undefined) | 4%
O=C(CSc1nccn1Cc1ccc(Cl)cc1)NC1CCCC1 | -25%
CC(C)(C)CC(=O)NC[C@H]1O[C@H](Cc2cc(-c3ccc(F)cc3)on2)CC[C@@H]1O | i
CN1CC(=O)N(c2ccccc2F)Cc2c1ncnc2N1CCN(c2ncccn2)CC1 | i
c1coc(-c2noc(CN3CCCC3c3nc(-c4ccncc4)no3)n2)c1 (centres undefined) | i
CCc1ccc(CNC(=O)C2Cc3cc(S(=O)(=O)N4CCCCCC4)ccc3N2C(C)=O)cc1 (centres undefined) | -15%
COc1ccc(Nc2oc(-c3ccc(COc4ccccc4C)o3)nc2C#N)cc1 | -2%
COc1ccccc1C1C(C(N)=O)=C(C)Nc2nc(SCc3ccccc3F)nn21 (centres undefined) | -8%
O=C(COC(=O)c1cc(-c2cccs2)nc2ccccc12)c1ccccc1 | -8%
CN1CCN(Cc2ccc(-c3cnc4[nH]cc(-c5ccc6[nH]ccc6c5)c4c3)cc2)CC1 | 105%[activator]
COc1cccc(N2CCN(C(=O)c3cnc4c(-c5ccccc5)c(C)nn4c3C)CC2)c1 | -14%
O=C(NC1CCCC1)c1ccc(OC2CCN(C(=O)C3CCCO3)CC2)c(Cl)c1 (centres undefined) | 2%
O=c1c(Nc2ccc(Cl)c(Cl)c2)c(Nc2nnc(-c3ccncc3)s2)c1=O | i
O=C(NCc1cccs1)c1ccc(CSc2nc3ccncc3n2Cc2cccc(F)c2)cc1 | 12%
NCCCNc1ccc(Nc2nccc(Nc3cc(C4CC4)[nH]n3)n2)cc1 | 321%[activator]
O=C1NCCCCCCN(S(=O)(=O)Cc2ccccc2F)[C@H]2CCC[C@@H]12 | i
COc1ccc(NC(=O)CN(C)C(=O)c2cc3c(s2)CCC3)cc1 | 1%
O=C(CN1C(=O)C2(CCNCC2)Nc2ccccc21)NC1CCCCCC1 | -10%
CN(Cc1ccccc1C(F)(F)F)S(=O)(=O)c1cccc(C(F)(F)F)c1 | i
COC1CCN(c2cccc(-c3cc(NC(C)=O)nc(-n4nc(C)cc4C)n3)n2)CC1 | 140%[activator]
C=C1C[C@]23C[C@H]1CC[C@H]2[C@@]1(C)CCC[C@@]2(C)C(=O)O[C@@H]([C@@H]3O)[C@@H]12 | -13%
Cc1ccc(S(=O)(=O)N(CC(=O)Nc2ccc3c(c2)OCO3)c2ccc(C)c(Cl)c2)cc1 | -28%
COc1ccc(NC(=O)c2c(NCc3ccc(C)o3)sc3c2CCCCC3)c(OC)c1 | ?
COc1cc2[nH]c(=O)n(CCCC(=O)N(C)Cc3ccccc3)c(=O)c2cc1OC | -17%
CC1CCCCN1S(=O)(=O)c1ccc2c(c1)oc(=O)n2CC(=O)Nc1ccc(Cl)cc1 (centres undefined) | -24%
Nc1cccc(S(=O)(=O)Nc2cnccc2C(=O)Nc2nc(-c3ccccc3)cs2)c1 | i
Cc1csc2nc(COC(=O)c3ccccc3NC(=O)COc3ccccc3F)cc(=O)n12 | -18%
CCCCN=C(N)NC(=N)N | -6%
CCS(=O)(=O)CCn1c([N+](=O)[O-])cnc1C | 11%
C=C1CC/C=C(/CO)C(=O)C[C@@H]2[C@@H]1CC2(C)C | ?
CC1(C)CC2C(C1)C1(C)CCC13OC3(CO)C2O (centres undefined) | ?
CCc1ccc(C(=O)c2cn(CC(=O)NC3CCCCC3)c3nc(C)ccc3c2=O)cc1 | -29%
Cc1csc2nc(-c3cccc(NS(C)(=O)=O)c3)cn12 | -16%
CCN(CC)C(=O)Cn1c(=O)nc(-c2ccccc2F)c2cc(Cl)ccc21 | -1%
Cc1ccc(CSc2ncc(Cl)c(C(=O)NCCc3ccc(S(N)(=O)=O)cc3)n2)cc1 | 47%[activator]
Cc1cc(=O)n(CC(=O)N2CCN(c3ccccc3F)CC2)c2c1c(C)nn2C | -6%
Cc1cnc(-c2ccccc2C2COC2)nc1NCC1CCN(c2cccnc2)CC1 | i
Cc1cc(NC(=O)c2cc(-c3ccc(Cl)cc3)on2)n(-c2ccccc2)n1 | -20%
Cc1ccc(CNc2nc(-c3ccccc3C(F)(F)F)nc3ccccc23)cc1 | -5%&1%

Rewritten as tab-separated lines: part of the list above
mol	nsP2pro inh
COc1cc(O)c(C(=O)Nc2nc(C(=O)NCCN(C(C)C)C(C)C)cs2)cc1OC	-23%
CC(=O)c1cc2c(cc1N/C(=N/S(=O)(=O)c1ccc(C)cc1)c1ccccc1)OCO2	-14%
COc1cc([N+](=O)[O-])ccc1NC(=O)N1CCC2(CC1)Nc1cc(F)ccc1-n1cccc12	-11%
CN(Cc1cncn1C)c1ncnc2ccc(-c3ccc4c(c3)OCO4)cc12	i

Further results
SMILES | nsP2pro inh
CC1OC(OC2C(O)C(OC3CCC4(C)C(CCC5(C)C4CC=C4C6CC(C)(COC7OC(CO)C(O)C(O)C7O)CC(O)C6(C)CCC45C)C3(C)C)OC(C(=O)O)C2O)C(O)C(O)C1OC1OCC(O)C(O)C1O (centres undefined) | 19%[5.1 µM]
CCCC[C@H](C)C[C@H](O)/C=C/[C@H]1[C@H](O)CC(=O)[C@@H]1CCCC/C=C/C(=O)O | -3%
Cc1ccc(NC(=O)COc2ccc3oc4c(c3c2)CCCC4)c(C)c1 | -21%
Cc1ccc(-c2nc(-c3cc4cccc(OCc5cccc(C)c5)c4oc3=O)no2)cc1 | 17%
Cc1cc(C)cc(NC(=O)C(=O)NCCc2sc(-c3cccc(F)c3)nc2C)c1 | -31%
COc1cccc(N2C(=O)c3ccccc3C2=O)c1 | ?
Nc1ncc(C(=O)N2CCC3(CC2)[C@H](O)C[C@@H]3O)c(C(F)(F)F)n1 | i
CC(C)(C)NC(=O)N1CCC(c2nnc3n2C(C(=O)NCC2CCCCC2)CC3)CC1 (centres undefined) | -17%[39.2 µM]
Cc1ccc(-c2cc3ncc(C(=O)c4cc([N+](=O)[O-])ccc4O)cn3n2)cc1 | 17%
